Compound activity as filed in PubChem.
RE007 growth inh: less growth of the S. pombe RE007 Vpr strain | S. pombe RE007 Vpr strain, BacTiter-Glo ATP luminescence, 24 h; control for the full effect not named in the record | Potency, µM (doses to about 92.2 µM), inactives show top-dose activity change, negative = less growth | hit rate 0.21% among 360,000 | AID 651644; active = well fitted falling curve with a large enough effect; inconclusive = small, poorly fitted or top-dose-only effect; inactive = no such curve, though single readings can be large or run the other way;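 note: % is set by controls: 0 for no effect and ±100 for the full control effect; nearly all actives have a fitted effect of over 50% in size; the assay follows cell death caused by Vpr and the record does not say whether a fall means rescue or toxicity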
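Fission yeast RE007 carrying one integrated HIV-1 vpr copy, seeded at OD 0.01 in PMG+AL medium with 23 nL pinned compound. Grown 24 h at 30 degrees; viability read by BacTiter-Glo luminescence after 5 min.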
MARV entry inh: Marburg virus entry inhibition | AID 540276 | Marburg virus pseudotyped entry inhibition, cell reporter; control for the full effect not named in the record; about a third of the inactives were read at about 46 µM | hit rate 1.8% among 300,000 | Potency, µM (top dose mostly 37.8 µM), inactives show at the highest dose activity change, negative = inhibition, usual class: inhibitors; active = well fitted inhibition curve with a large enough effect; inconclusive = small, poorly fitted or top-dose-only effect, or effect the other way; inactive = flat fitted curve, though single readings scatter; tested in HEK293 cells; about a fifth of its hits are not listed in these tables; note: % is set by controls: 0 for no effect and ±100 for the full control effect; luciferase read-out
SARS PLpro yeast: inhibitors of SARS-CoV papain-like protease in yeast; S. cerevisiae expressing SARS-CoV PLpro, growth rescue; control for the full effect not named in the record; Potency, µM (titrated, usually from 32.9 µM), without a hit: at the top dose activity, positive = growth rescue; hit rate 0.19% among 330,000; AID 485353; active means well fitted rising curve with a large enough effect; inconclusive means small, poorly fitted or top-dose-only effect; inactive means no such curve, though single readings can be large or run the other way; note: 0% is about no effect; nearly all actives have a fitted effect of over 55% in size; growth read by luminescence after 48 h
2A StopGo: lowers the luciferase signal of an FMDV 2A StopGo reporter; human cells with a luciferase reporter of 2A StopGo recoding; control for the full effect not named in the record; Potency, µM (series often up to 57.9 µM), inactives show at the top dose signal change, negative = less light; hit rate 1.2% among 410,000; AID 1159524; active = well fitted falling curve with a large enough effect; inconclusive = small, poorly fitted or top-dose-only effect; inactive = no such curve, though single readings can be large or run the other way; tested in HEK293T cells; note: % is set by controls: 0 for no effect and ±100 for the full control effect; nearly all actives have a fitted effect of over 45% in size; luciferase light after 4 h
NS1 function inh: inhibitors of influenza NS1 protein function; S. cerevisiae slowed by influenza A NS1, growth recovery by OD600; Potency, µM (doses to about 46.1 µM), for the others: at the top dose activity, positive = more growth; hit rate 0.4% among 270,000; active means well fitted rising curve with a large enough effect; inconclusive means small, poorly fitted or top-dose-only effect; inactive means no such curve, though single readings can be large or run the other way; note: nearly all actives have a fitted effect of over 50% in size
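S. cerevisiae expressing influenza A NS1, grown in glucose, washed, then diluted 1:100 into pH 6.0 -URA galactose medium with 23 nl compound. Growth recovery read as OD600; NS1-free strain serves as control.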
LASV entry inh: inhibitors of Lassa virus binding or cell entry. Lassa virus pseudotype entry inhibition, cell reporter; control for the full effect not named in the record. Potency, µM (top dose mostly 37.9 µM), inactives show at the highest dose activity change, negative = inhibition, usual class: inhibitors. hit rate 1.2% among 300,000; active means well fitted inhibition curve with a large enough effect; inconclusive means small, poorly fitted or top-dose-only effect, or effect the other way; inactive means flat fitted curve, though single readings scatter; tested in HEK293 cells; note: % is set by controls: 0 for no effect and ±100 for the full control effect; nearly all actives have a fitted effect of over 50% in size; luciferase read-out
Cruzain Triton: cruzain (T. cruzi) inhibition with detergent; P25779; purified cruzain, Z-FR-AMC fluorescence, 0.01% Triton; Potency, µM, for inactives: max response, negative = inhibition, hits mostly inhibitors; hit rate 0.43% among 200,000;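 note: plate controls were neutral wells for no effect and buffer without enzyme for full effect; nearly all actives have a fitted effect of over 40% in size; top concentration of the series not given in the record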
Target sequence (P25779 123-467 limits assumed): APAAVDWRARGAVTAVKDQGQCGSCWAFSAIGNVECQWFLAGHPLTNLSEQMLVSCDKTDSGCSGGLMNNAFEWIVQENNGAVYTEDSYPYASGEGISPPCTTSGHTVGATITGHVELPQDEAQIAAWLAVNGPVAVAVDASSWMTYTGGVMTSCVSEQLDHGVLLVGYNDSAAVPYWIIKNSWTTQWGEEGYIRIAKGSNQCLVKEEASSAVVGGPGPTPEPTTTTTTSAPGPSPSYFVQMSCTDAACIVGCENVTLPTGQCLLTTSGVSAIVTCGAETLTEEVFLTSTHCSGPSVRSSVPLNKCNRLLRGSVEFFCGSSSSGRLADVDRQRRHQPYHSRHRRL
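15 min RT preincubation of 1.5 nM cruzain with compound, then 2 uM Z-FR-AMC added; kinetic AMC fluorescence, 60 s delta. Triton X-100 0.01%, pH 5.5.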
Cruzain noTriton: inhibitors of Trypanosoma cruzi cruzain without detergent; P25779; purified cruzain, Z-FR-AMC fluorescence, no detergent; Potency, µM, for inactives: max response, negative = inhibition, usual class: inhibitors; hit rate 2.3% among 200,000; AID 1476;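 note: plate controls were enzyme without inhibitor for no effect and buffer without enzyme for full effect; nearly all actives have a fitted effect of over 40% in size; top concentration of the series not given in the record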
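Purified cruzain at 1.5 nM, pre-incubated 15 min with compound at room temperature in 100 mM sodium acetate pH 5.5, 5 mM DTT, 0.00005% Triton X-100. Reaction started with 2 uM Z-FR-AMC; AMC fluorescence increase over 60 s gives rate.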
Starred values were filed as active, the others as inactive; ? = inconclusive; · = not tested or not shown; & = joins results of further samples; [ ] = remark or other dose. Unless noted, calls come from the whole dose curve; as a rule, active = well fitted curve in the direction sought with a large enough effect; inconclusive = small, poorly fitted or top-dose-only effect, or another doubt; inactive = no such curve, though single readings can be large; an effect the other way counts as inactive or inconclusive. Potency is the fitted concentration of half-maximal effect.

SMILES	RE007 growth inh	MARV entry inh	SARS PLpro yeast	2A StopGo	NS1 function inh	LASV entry inh	Cruzain Triton	Cruzain noTriton
COC(=O)c1cn(CC(=O)N2CCCCCC2)c2ccccc12	1%	0%	0%	13%	-4%	-4%	6.4%	5%
Cc1ccc(-n2[nH]c(=O)c3cccnc32)cc1	-26%	?	-10%	52%[activator]	-110%	5%	-1.2%	11%
Cc1noc(C)c1COC(=O)CCOc1ccccc1	-11%	8%	3%	9%	?	-8%	1.3%	6%
Cc1c(C(=O)Nc2ccccc2Br)oc2ccc(S(=O)(=O)N3CCOCC3)cc12	·	·	·	-23%	·	22%[46.1 µM]	-0.7%	1%
CC(Cc1ccccc1)NC=O (stereo not given)	-5%	·	-6%	-21%	1%	·	·	·
COc1ccc(OCC(=O)NCCCn2ccnc2)cc1	-1%	11%[46.1 µM]	0%	6%	18%	-1%	·	·
Cc1nnc(SCC(=O)Nc2nc3c(s2)CC(C)CC3)s1 (stereo not given)	11%	-1%	-1%	-8%	?	-17%	-2.2%	?
CCOc1ccc(OCC)c(NS(=O)(=O)c2cn(C)cn2)c1	2%	·	10%	13%	1%	·	·	·
O=S(=O)(Nc1cc(Sc2cccc3cccnc23)c(O)c2ccccc12)c1ccccc1	·	?	-15%	·	1%	18µM*	0.3%	3.2µM*
COc1ccc(-n2c(SCC(=O)Nc3sc4c(c3C#N)CCCC4)nnc2-c2ccc(O)cc2)cc1	-19%[3.69 µM]	-8%	0%	0%	-5%	-5%	1.4%	?
COc1ccc(S(=O)(=O)n2nc(C)c(S(=O)(=O)N3CCC(C)CC3)c2C)cc1C	·	·	·	22%	·	?	0.8%	-7%
Cc1cc(C)c(S(=O)(=O)N(C)Cc2cnn(C)c2)c(C)c1	7%	8%	-3%	-17%	-12%	11%	3.1%	5%
Cc1ccc(/C=N/Nc2nc3ccccc3s2)o1	-5%	?	-21%	-39%	2%	3.2µM*	-13%	4%
COc1ccccc1-c1cc(C(=O)Nc2cccnc2Cl)no1	-6%	5%[46.1 µM]	2%	5%	-2%	-9%[46.1 µM]	·	·
CCc1ccc(NC(=O)c2[nH]c(C)c(C(C)=O)c2C)cc1	-5%	?	-40%	82%[activator]	-17%	?	·	·
CC(=O)c1cccc(NC(=O)c2ccc(-n3c(C)nnc3C)cc2)c1	·	·	·	0%	·	1%[46.1 µM]	-0.1%	-4%
O=C(O)c1ccccc1C(=O)Nc1n[nH]c(=S)s1	3%	18%	28%	-5%	4%	-3%	2.3%	3%
O=C(NCc1cccnc1)c1c(F)c(F)c(F)c(F)c1F	-11%	-5%	-1%	-15%	6%	-2%	-8.2%	-5%
Cc1ccc(N2C(=O)CC(Sc3ccccc3C(=O)O)C2=O)cc1C (stereo not given)	14µM*	-21%[46.1 µM]	-5%	-2%	-6%	?	·	·
Cc1ccc(-c2nnn3c2nc(N2CCC(C)CC2)c2ccccc23)cc1	·	4%[46.1 µM]	·	35%[activator]	·	22%[46.1 µM]	-0.1%	-1%
Clc1ccccc1-c1nnc2sc(-c3ccc4c(c3)OCO4)nn12	8%	?	-2%	48%[activator]	?	?	-3.0%	?
COc1cccc(N2C(=O)CC(NNc3nc4ccccc4s3)C2=O)c1 (stereo not given)	6%	11%[46.1 µM]	4%	42%[activator]	1%	1%	·	·
Nc1nc(SCC(=O)Nc2ccc3c(c2)CCC3)n[nH]1	11%	2%	?	-17%	12%	8%	-2.1%	-17%
O=[N+]([O-])c1ccc(CSc2nc3ncc(Br)cc3[nH]2)cc1	2%	·	1%	16%	-35%	·	·	·
COc1ccc(C2=NOC(C(=O)NCc3ccc(F)cc3)C2)cc1OC (stereo not given)	-15%	?	3%	-19%	1%	0.82µM*	-1.9%	-11%
C[C@H](N)c1nnc(SCc2ccc(Cl)cc2Cl)o1	15%	?	-6%	-8%	4%	15%	3.1%	-3%
COc1ccccc1N=Cc1c(C)[nH]n(-c2ccc(C)cc2C)c1=O	11%	-8%[46.1 µM]	-1%	?	4%	?	·	·
COCC(=O)NNC(=S)Nc1cccc(C)c1C	19%	?	1%	2%	6%	9%	·	·
COc1ccc(-c2nc(CN3CCC(C(=O)NCCCOC(C)C)CC3)c(C)o2)cc1OC	·	-4%[46.1 µM]	·	4%	·	?	2.2%	-10%
CC(=O)C1CCC2C3CC(C)=C4CC(O)CCC4(C)C3CCC12C (stereo not given)	0%	?	·	-16%	·	0%[46.1 µM]	·	·
O=C(O)CCCCNCc1ccccc1	-8%	14%	14%	·	5%	14%	6.8%	1%
CC(C)C12CN3CC(C(C)C)(CN(C1)C31C(=O)Nc3ccccc31)C2=O (stereo not given)	-4%	-11%	1%	0%	-2%	-11%	1.2%	1%
O=C(CSc1nnc(Cc2ccccc2)o1)Nc1ccc(Br)cn1	7%	-4%	0%	14%	6%	6%	-1.4%	?
O=c1c2nncn2c2cc(C(F)(F)F)ccc2n1CCNc1ncc(C(F)(F)F)cc1Cl	-12%	9%[46.1 µM]	0%	?	-3%	?	·	·
CC(C)(C)c1ccc(C2C(C#N)=C(N)Oc3n[nH]c(-c4cccnc4)c32)cc1 (stereo not given)	9%	5%[46.1 µM]	2%	-21%	-2%	4%	·	·
COc1cccc(CNC(=O)C2CCN(C(=O)c3sccc3-n3cccc3)CC2)c1	·	-17%[46.1 µM]	·	-8%	·	·	-1.5%	-1%
CS(=O)(=O)N1CCN(C2C3CC4CC(C3)CC2C4)CC1 (stereo not given)	2%	·	1%	-20%	1%	·	·	·
Cc1cc(-c2nnc(CCC(=O)NC(C)(C)C34CC5CC(CC(C5)C3)C4)o2)no1	13%	-9%[46.1 µM]	·	15%	·	5%	·	·
CCOC(=O)CC1C(=O)NCCN1S(=O)(=O)c1ccc(OC)cc1 (stereo not given)	2%	-1%[46.1 µM]	0%	10%	1%	0%[46.1 µM]	·	·
Clc1ccccc1NCSC1=NCCS1	-16%	1%[46.1 µM]	·	-18%	·	-4%[46.1 µM]	·	·
CCOC(=O)n1c(=O)n(Cc2ccc(Cl)c(Cl)c2)c2ccccc21	22%	?	-20%	-4%	-21%	?	-3.4%	-1%
COc1ccc(NC(=S)NC(=O)/C=C/c2ccco2)cc1	3%	-24%[46.1 µM]	4%	55%[activator]	·	-18%	·	·
CCc1c(C(C)S(=O)(=O)c2ccc(C)cc2)[nH]c(=O)n1-c1ccc(OC(F)(F)F)cc1 (stereo not given)	17%	10%	15%	-29%	18%	?	-9.9%	26%
C#Cc1ccc([C@@H]2C=C(C(=O)N3CCOCC3)O[C@H](OCC)[C@H]2CCCO)cc1	8%	·	1%	-7%	-4%	·	·	·
CC(C)(C)c1ccc(OCCCC(=O)N2CCOCC2)cc1	-4%	·	1%	30%[activator]	-2%	·	·	·
Cc1ccc(S(=O)(=O)N(C)C)cc1-n1c(SCC(=O)Nc2ccc(F)cc2)nc2ccccc2c1=O	1%	-3%	2%	-8%	13µM*	·	-3.7%	18%
Brc1ccc2c(c1)NC(c1cccnc1)=NC(c1ccccc1)=N2	·	-18%[46.1 µM]	·	41%[activator]	·	7%[46.1 µM]	-1.3%	3%
N=C1c2ccccc2CN1NC(=O)c1cccc(S(=O)(=O)N2CCOCC2)c1	?	1%	6%	-11%	-3%	·	-3.7%	-2%
COc1ccc(-c2oc3ccccc3c2C(=O)OCc2ccccc2)cc1	1%	·	-3%	76%[activator]	15%	·	·	·
CCOC(=O)C(C(C)=O)=C1SC2CS(=O)(=O)CC2S1 (stereo not given)	1%	7%	-2%	·	-1%	21%	-0.9%	5%

New compounds follow
SMILES	RE007 growth inh	MARV entry inh	SARS PLpro yeast	2A StopGo	NS1 function inh	LASV entry inh	Cruzain Triton	Cruzain noTriton
Cc1ccc(/C(O)=C2\C(=O)C(=O)N(C)C2c2ccc([N+](=O)[O-])cc2)cc1 (stereo not given)	17%	·	-3%	23%	10%	·	·	·
CCCn1c(NC(=O)c2ccc(Cl)c(S(=O)(=O)N3CCCC3)c2)nc2ccccc21	23%	?	11%	?	14%	?	-8.2%	-17%
CCOC(=O)c1cccc(NC(=O)c2cc(-c3ccc(Cl)s3)nc3ccccc23)c1	·	-4%[46.1 µM]	·	-20%	·	2%[46.1 µM]	1.0%	-8%
CCOc1ccc(NS(=O)(=O)c2ccc(C(=O)NCC3(N(C)C)CCCCC3)cc2)cc1	0%	?	-2%	-13%	·	-25%	·	·
Cc1ccc(-c2nnc(SCC(=O)Nc3ccc(S(=O)(=O)N4CCCCCC4)cc3)o2)cc1	-10%	?	6%	-10%	-4%	?	2.7%	9%
Cc1ccc(C(C)C)c(OCC(=O)N/N=C2\CC(=O)CC(C)(C)C2)c1	-12%	?	6%	-4%	12%	-14%[46.1 µM]	·	·
COc1cc(C(=O)Nc2ccc3nn(-c4ccc(F)cc4)nc3c2)cc(OC)c1OC	·	·	·	?	·	14%[46.1 µM]	-7.8%	?
CC(=O)OC(C)C[N+](C)(C)C (stereo not given)	7%[18.4 µM]	20%&-21%&-21%&-21%&-21%&-13%&-21%&-21%&-21%	1%	0%&-15%	-6%&0%	?	-0.9%&2.2%&1.3%	14%&-7%&-4%
COc1ccc(OCCOc2ccccc2[N+](=O)[O-])cc1	8%	?	25%	39%[activator]	0%	1%	-6.0%	-5%
Cc1ccc(N2C(=O)N(CC(=O)Nc3cc(C)cc(C)c3)C(=O)C2C)cc1 (stereo not given)	-29%	?	0%	-18%	·	-4%[46.1 µM]	·	·
Clc1ccc(OCC#CCN2CCOCC2)cc1	-4%	·	0%	41%[activator]	0%	·	·	·
COc1ccc(N(C(=O)c2cccnc2)S(=O)(=O)c2cccs2)cc1	-3%	-10%[46.1 µM]	-1%	13%	-1%	-45%[46.1 µM]	·	·
CCCCn1c(CCCNC(=O)c2cccc(C)c2)nc2ccccc21	·	?	·	-4%	·	?	1.4%	-1%
Fc1cc(F)cc(-c2oncc2-c2nnnn2-c2ccccc2)c1	3%	-10%[46.1 µM]	16%	-17%	-1%	-2%	-1.7%	-2%
Cc1cccc(-c2noc(CN(C(=O)C(c3ccccc3)c3ccccc3)C(C)C)n2)c1	11%	·	-6%	-29%	28%	·	-5.2%	-15%
